# Source: PubChem (Southern Research Institute)
# Mtb growth – Mycobacterium tuberculosis H37Rv growth inhibition, putative kinase inhibitor library, confirmatory dose response (AID 2842) | M. tuberculosis H37Rv growth inhibition; higher % means a stronger effect; some inactives read as strong as hits | inhibition, % at 10 µg/mL, or IC90 in µg/mL where a hit was titrated | hit rate 5.2% among 24,000;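 active = confirmed in a dose series; about a fifth of its hits are not listed in these tables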;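 also: bacteria incubated one week before Alamar blue readout; 0% = bacteria only wells and 100% = bacteria with high antibiotic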
# Numbers without * were called inactive. These rows are one share of the data. The share of hits here may be higher or lower than overall.
SMILES | Mtb growth
COc1cccc(Cn2cc3c(-c4ccc(OC)c(OC)c4)nnc-3c3cc4c(cc32)OCCO4)c1 | 32.1%
COc1ccc(C(=O)c2cn(Cc3cccc(OC)c3)c3ccc(C)cc3c2=O)cc1 | 2.8%
N#Cc1ccc(CSc2nnc3[nH]c(=O)cc(N)n23)cc1 | -7.6%
CCn1c(SCC(=O)Nc2cccc3ccccc23)nc2c(c1=O)SC(C)C2 (stereo not given) | 6.5%
CCOc1cc(/C=N/NC(=O)c2cc(-c3ccco3)[nH]n2)ccc1O | 51.8%
c1cncc(CSc2nnc(-c3cccnc3)o2)c1 | -11.4%
CCCC(=O)Nc1c(C(=O)Nc2ccccc2)oc2ccccc12 | -0.6%
CCc1nnc(NC(=O)CC23CC4CC(CC(C4)C2)C3)s1 | -5.1%
O=c1[nH]cnc2nc[nH]c12 | -2.0%
Cc1cnc(=O)[nH]c1SCc1ccc([N+](=O)[O-])cc1 | -16.6%
CCOC(=O)c1nn(-c2ccc(F)cc2)c(=O)c2c(NC(=O)c3ccc(C(F)(F)F)cc3)scc12 | -8.2%
Fc1cccc(CSc2nnc3ccc(-c4cccnc4)nn23)c1 | 2.8%
CCN1CCc2c(sc(NC(=O)c3ccc([N+](=O)[O-])cc3)c2C(N)=O)C1 | 4.0%
COC(=O)c1ccc(Oc2c(C(F)(F)F)oc3cc(O)ccc3c2=O)cc1 | -16.2%
COCCn1ccc2c(OCC(=O)NCCc3ccccc3)cccc2c1=O | -2.3%
CC(=O)NC(=O)c1cc2ccccc2oc1=Nc1cccc(C(F)(F)F)c1 | -3.1%
N#Cc1ccc(C(=O)OCCNC(=O)c2cccnc2)cc1 | -3.6%
COCCn1c(=NC(=O)c2ccc([N+](=O)[O-])s2)sc2cc(F)ccc21 | -4.6%
CCN(CC)CCCNc1ncnc2sc3c(c12)CC(C)CC3 (stereo not given) | 5.6%
Cc1cc2c(Nc3ccccc3O)ncnc2s1 | 18.8%
CCOC(=O)c1cc([N+](=O)[O-])sc1NC(=O)c1ccc(Cl)s1 | 3.7%
CCOc1cccc2cc(S(=O)(=O)c3cccc(Cl)c3)c(=O)oc12 | -1.8%
Cc1ccc2cc(CCNC(=O)c3ccco3)c(=O)[nH]c2c1C | -0.2%
Cc1nc2sc(C(c3ccc([N+](=O)[O-])cc3)N3CCCCC3)c(O)n2n1 (stereo not given) | -2.4%
COC(=O)NNC(=O)NC1CC(=O)N(c2ccc3c(c2)OCCO3)C1 (stereo not given) | -9.8%

# The list continues:
SMILES | Mtb growth
N#Cc1c(NC(=O)CCOc2ccccc2)sc2c1CCC2 | -20.5%
COc1cccc(C(=O)Nc2nc3c(s2)CCc2ccccc2-3)c1 | 11.3µg/mL*
O=C(c1ccccc1)c1ccc(C(=O)N(Cc2ccccc2)c2nnc(C34CC5CC(CC(C5)C3)C4)s2)cc1 | 12.5%
O=C(O)CCCN1C(=O)/C(=C/c2ccc(-c3nc4ccccc4s3)o2)SC1=S | 9.5%
COc1ccc(CCNc2nnc(Cc3ccc(Cl)cc3)c(=O)[nH]2)cc1OC | -5.4%
COc1ccc2nc(Nc3nc(C)c(C(C)=O)s3)sc2c1 | 59.9%
CCOC(=O)c1nn(-c2ccccc2)c(=O)c2c(NC(=O)c3cccc([N+](=O)[O-])c3)scc12 | -2.1%
Cc1ccc(Cn2cc(C(=O)Nc3cccnc3)ccc2=O)cc1 | 4.9%
CCS(=O)(=O)c1ccccc1C(=O)Nc1nc2cc3c(cc2s1)OCO3 | 0.1%
CC(=O)N1N=C(c2cccc(NS(C)(=O)=O)c2)CC1c1cn(-c2ccccc2)nc1-c1ccccc1 (stereo not given) | -5.1%
Cc1ccc(C2CC(=O)NC(SCC(=O)Nc3ccc(Br)cc3)=C2C#N)s1 (stereo not given) | -3.3%
Cc1c(O)ccc(C(=O)CN2CCN(c3cccc(Cl)c3)CC2)c1O | -11.1%
Cc1ccc(C(=O)Nc2nc(-c3cc4ccccc4oc3=O)cs2)cc1 | 5.2%
O=C(O)CCC(C(=O)O)N1C(=O)/C(=C/c2ccc3c(c2)OCO3)SC1=S (stereo not given) | -23.3%
CCOC(=O)c1sc2nc(NC(=O)C(C)(C)C)sc2c1C | 17.0%
c1coc(-c2nn3c(-c4ccco4)nnc3s2)c1 | -7.5%
COc1ccc(-c2ccc(SCC(=O)Nc3cc(C)on3)nn2)cc1 | -4.7%
O=C(Nc1nnc(-c2ccccc2)s1)c1ccc(N2C(=O)CCC2=O)cc1 | 4.2%
CCc1nnc(NC(=O)CSc2nccn2-c2ccc(Cl)cc2)s1 | 68.4%
CCOc1cc(/C=N\NC(=O)c2cc(C(C)(C)C)[nH]n2)ccc1O | -8.1%
COc1ccc2nc(-c3ccc(C)c(NC(=O)c4ccc(F)cc4)c3)cn2n1 | -12.1%
COc1cccc(CNC(=O)c2c(O)nc3sccn3c2=O)c1 | -7.6%
CCS(=O)(=O)c1cccc(C(=O)Nc2nc3ccc(Cl)cc3s2)c1 | -9.4%
Cc1ccc(C)c(-c2nnc(NC(=O)C(C)C)o2)c1 | 6.62µg/mL*
Cc1cc(O)c(C(c2ccncc2)N2CCCCC2)c(=O)n1Cc1ccco1 (stereo not given) | 0.5%

# Four structures already listed, arranged by formula weight, smallest number first.
SMILES | Mtb growth
Cc1ccc(Cn2cc(C(=O)Nc3cccnc3)ccc2=O)cc1 | 4.9%
O=C(Nc1nnc(-c2ccccc2)s1)c1ccc(N2C(=O)CCC2=O)cc1 | 4.2%
Cc1ccc(C2CC(=O)NC(SCC(=O)Nc3ccc(Br)cc3)=C2C#N)s1 (stereo not given) | -3.3%
O=C(c1ccccc1)c1ccc(C(=O)N(Cc2ccccc2)c2nnc(C34CC5CC(CC(C5)C3)C4)s2)cc1 | 12.5%

# Further structures:
SMILES | Mtb growth
COc1ccc(OC)c(-c2nnc(NC(=O)CSc3ccc(C)cc3)s2)c1 | 8.6%
COc1ccc(C(=O)Nc2c(C(=O)Nc3ccc4c(c3)OCCO4)oc3ccccc23)cc1OC | -7.0%
O=C(Nc1ccc(F)cc1)C(=O)Nc1ccc2c(c1)N(S(=O)(=O)c1cccs1)CCC2 | -13.6%
CCCc1cc(SCC(=O)O)n2c(nc3ccccc32)c1C#N | -18.2%
COC(=O)C1=C(C)Nc2nc(SCc3ccccc3)[nH]c(=O)c2C1c1cccs1 (stereo not given) | 6.7%
CCOC(=O)c1ccc(Nc2ncnc(N)c2[N+](=O)[O-])cc1 | 0.7%
Cc1ccc(C)c2[nH]c(=O)c(CCNC(=O)c3cccs3)cc12 | 3.5%
CCc1ccc(-c2csc(NC(=O)c3ccc(S(=O)(=O)N4CC(C)CC(C)C4)cc3)n2)cc1 (stereo not given) | 1.8%
O=C(Nc1nnc(-c2ccc(Cl)cc2)o1)c1ccccc1Br | 2.46µg/mL*
CC(C)CCSc1nc2c(c(=O)[nH]c(=O)n2C)n1Cc1ccc(Cl)cc1 | 19.8%
O=C(CCCCl)Nc1c(C(=O)Nc2cccc(F)c2)oc2ccccc12 | 40.7%
COC(=O)c1ccc(CSc2ccc3nnc(-c4ccccn4)n3n2)o1 | 78.8%
Cc1nc2cc(NC(=O)c3ccc(S(=O)(=O)N(C)Cc4ccccc4)cc3)ccc2s1 | 1.9%
O=C(Nc1c(C(=O)Nc2ccc([N+](=O)[O-])cc2)oc2ccccc12)c1cccc(F)c1 | 5.3%
Cc1cccc(NS(=O)(=O)c2cc3c4c(c2)CCN4C(=O)CC3)c1 | -4.0%
CCCCn1c2c(c(=O)[nH]c1=O)C(c1cccc(F)c1)C1=C(COC1=O)N2 (stereo not given) | -12.3%
COc1ccc(NC(=O)Nc2nc(-c3ccc(Br)s3)cs2)cc1 | -11.9%
CCOC(=O)c1nn(-c2ccc(C)cc2)c(=O)c2c(NC(=O)c3ccccc3C)scc12 | -10.1%
COc1ccc2cc(CCNC(=O)C(C)(C)Oc3ccc(Cl)cc3)c(=O)[nH]c2c1 | 4.8%
C=CCNC(=S)NNC(=O)c1ccc([N+](=O)[O-])cc1 | 9.0%
CC(=O)Nc1ccc(NC(=O)C(=O)NCC(c2ccco2)N2CCc3ccccc32)cc1 (stereo not given) | -1.2%
Cc1ccccc1N1C(=O)CC(Sc2ccccc2C(=O)O)C1=O (stereo not given) | 3.5%
Cc1ccc(C(=O)NC2CC(=O)N(c3ccc4c(c3)OCCO4)C2)cc1 (stereo not given) | -0.8%
CCc1nnc(NC(=O)CSc2nc3c(c(=O)n2Cc2ccccc2)SC(C)C3)s1 (stereo not given) | 2.8%
CCOC(=O)C1=C(C)Nc2nc(SCc3ccc([N+](=O)[O-])cc3)[nH]c(=O)c2C1c1ccncc1 (stereo not given) | 13.2%

# Next section (2 carried over from the part before).
SMILES | Mtb growth
CCc1nnc(NC(=O)CSc2nc3c(c(=O)n2Cc2ccccc2)SC(C)C3)s1 (stereo not given) | 2.8%
CCOC(=O)C1=C(C)Nc2nc(SCc3ccc([N+](=O)[O-])cc3)[nH]c(=O)c2C1c1ccncc1 (stereo not given) | 13.2%
O=C1CCCN1CCCNc1nc2c(-c3cccc(C(F)(F)F)c3)nnn2c2ccc(Cl)cc12 | 0.0%
CCc1nc2sc(C(c3ccc(F)c(F)c3)N3CCN(CCO)CC3)c(O)n2n1 (stereo not given) | 83.7%
CCOC(=O)C(C)Sc1nc2c(c(=O)[nH]c(=O)n2C)n1Cc1ccc(C)cc1 (stereo not given) | 23.3%
O=C(NNC(=O)c1cccs1)c1ccc(S(=O)(=O)N2CCCC2)cc1 | -7.7%
Cc1ccc(Cn2nnc(C(=O)O)c2C(=O)O)cc1 | 9.7%
Cc1ccc2nc(-c3ccc(NC(=O)C4CC4)cc3)sc2c1 | 11.8%
Cn1c(=O)[nH]c(=O)c2c1nc(N1CCC(C(N)=O)CC1)n2CCSc1ncccn1 | 2.5%
Cc1nnc(NC(=O)CSc2nnc(NC(=O)c3cccc(F)c3)s2)s1 | -12.3%
O=C(Nc1c(C(=O)Nc2ccccc2)oc2ccccc12)c1ccccc1Br | 4.2%
O=C(Cn1cnc2c(cnn2-c2ccc(F)cc2)c1=O)Nc1ccc2c(c1)OCO2 | -2.1%
Cc1cccc(NC(=O)c2n[nH]c(=O)c3ccccc23)n1 | 10.4%
COC(=O)CSC1=C(C#N)C(c2ccc(C)o2)CC(=O)N1 (stereo not given) | 7.8%
Cc1ccc(NC(=O)c2cnc3scc(C)n3c2=O)cc1F | -10.9%
Nc1nc(NCC(=O)O)nc(NCc2ccco2)c1[N+](=O)[O-] | -14.3%
CCOC(=O)c1nn(-c2ccc(Cl)cc2)c(=O)c2c(NC(=O)/C=C/c3cc(OC)c(OC)c(OC)c3)scc12 | 4.5%
Cc1nnc(NC(=O)c2c(F)cccc2Cl)s1 | -3.6%
CCc1ccc(NC(=O)CSc2ccc3nnc(CCNC(=O)c4ccc(F)cc4)n3n2)cc1 | 5.3%
COc1cccc(Cn2cc3c(-c4ccc(C)c(C)c4)nnc-3c3cc4c(cc32)OCCO4)c1 | 11.0%
O=C(Nc1nc(-c2nc3ccccc3s2)cs1)c1ccc(Cl)s1 | 50.3%
O=C(Nc1nnc(-c2ccc(Cl)cc2Cl)s1)c1ccccc1[N+](=O)[O-] | 1.8%
CCOC(=O)N1CCc2c(sc(NC(=O)c3cc(Cl)sc3Cl)c2C#N)C1 | 3.4%
Cc1ccccc1C(=O)Nc1ccc(S(N)(=O)=O)cc1 | -5.7%
COc1ccc2cc(CCNC(=O)c3cccc(F)c3)c(=O)[nH]c2c1 | 0.8%
COC(=O)c1[nH]c(C)c(/C(O)=C2\C(=O)C(=O)N(CCN(C)C)C2c2ccncc2)c1C (stereo not given) | -7.8%
COCCn1c(C)c(C)n2c3c(=O)n(CC(=O)c4ccc(F)cc4)c(=O)n(C)c3nc12 | -12.4%

# Going on with the list.
SMILES | Mtb growth
Cc1nnc(N/N=C/c2ccncc2)[nH]c1=O | -6.5%
O=C(Nc1nnc(-c2ccc(Cl)cc2)s1)c1ccccc1Br | 7.7%
Cc1cc(OC(=O)Cc2cccc3ccccc23)c([N+](=O)[O-])c(=O)[nH]1 | 35.9%
CC1CC(C)CN(C(=O)c2ccc3c(=O)n(CCC4=CCCCC4)c(=S)[nH]c3c2)C1 (stereo not given) | -7.3%
CC(=O)N1CCc2c(sc(NC(=O)c3cc4ccccc4oc3=O)c2C#N)C1 | 6.9%
O=S(=O)(c1ccccc1)N1N=C(c2cccs2)CC1c1cccc(O)c1 (stereo not given) | 17.5%
COc1ccc(N2CC(NC(=O)Nc3ccccn3)CC2=O)cc1 (stereo not given) | 8.6%
Cc1ccc(C)c(S(=O)(=O)N(C)C2(C)CCS(=O)(=O)C2)c1 (stereo not given) | -18.9%
Cc1cc(NC(=O)c2ccc([N+](=O)[O-])cc2)nc2c1c(=O)oc1ccccc12 | 8.6%
Cc1ccc(C)c(NS(=O)(=O)c2cc3c4c(c2)CCN4C(=O)CC3)c1 | 5.7%
COC(=O)CSCC(=O)Nc1nnc(-c2ccc(Cl)cc2)s1 | 29.9%
COc1ccccc1/C=C1\SC(=S)N(CCC(=O)Nc2ccc(O)c(C(=O)O)c2)C1=O | -7.9%
Cc1ccc(S(=O)(=O)N(C)CCCC(=O)Nc2cccc3ccccc23)cc1 | 15.2%
CC1C(=O)N2CCCc3cc(NS(=O)(=O)c4cc(F)ccc4F)cc1c32 (stereo not given) | 2.1%
COc1ccccc1NC(=O)c1oc2ccccc2c1NC(=O)CCCCl | 21.6%
CCC(CC)C(=O)Nc1c(C(=O)Nc2cc(OC)ccc2OC)oc2ccccc12 | 8.5%
O=c1[nH]c(O)c(/C=N/N2CCOCC2)c(=O)[nH]1 | -3.8%
CCCN1C(=O)CC(Sc2ccccc2C(=O)O)C1=O (stereo not given) | 4.9%
O=C(O)c1cccnc1SCC(=O)N1CCN(c2ccccn2)CC1 | -6.5%
CCSc1ccccc1C(=O)Nc1nc2cc3c(cc2s1)OCO3 | 11.5%
Cc1ccc(-c2nc(Nc3cccc(O)c3)c3ccccc3n2)cc1 | 18.7%
Cc1ccc(-c2nnc(NC(=O)c3cc([N+](=O)[O-])ccc3Cl)o2)c(C)c1 | 1.57µg/mL*
Nn1c(SCC(=O)Nc2ccccc2)nncc1=O | -14.7%
